Mtb hypoxia rep – PubChem AID 1159583; M. tuberculosis hypoxia-regulated fluorescent reporter, fluorescence; fluorescence inhibition, % (concentration not given with the values); 0.1% of 300,000 active;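 active = 35 to 45% if threefold the growth effect, above 45% if 1.5-fold the growth effect; inactive = the rest, general growth blockers included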;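 also: wells of about 50 µL received 100 nL stock; 0% = vehicle wells and 100% = reference inhibitor wells; whole bacteria with a GFP reporter of the hypoxia response; strong numbers were not always called active; many hits fall short of the cut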
PrP UTR inh – inhibition of PrP 5' UTR reporter expression. cell-based PrP 5' UTR mRNA reporter, plate reader. inhibition, % (concentration not given with the values). 0.35% of 340,000 active. AID 488862, 2010;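 active = every replicate at 50% or more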;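 also: 0 = median of the neutral control wells; tested in H4 reporter cells; numbers are from one replicate; inactives centre near -14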
BJeLR viability – MLPCN primary cell-based screen for lethality selective to Ras in HRASV12 cells; BJeLR (HRASV12) viability, CellTiter-Glo ATP luminescence, 48 h; reference of the scale not given here; inhibition, % (test concentration not listed); 0.17% of 300,000 active;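 active = replicate mean above 50%; inconclusive = above 50% but judged a plate artefact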;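 also: 50 nL library stock added to about 25 µL; numbers are from one replicate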
RN4220 kill – growth inhibition of S. aureus RN4220, primary screen, OD600 | 0.33% of 330,000 active | inhibition, % (no concentration beside the values) | 16 h;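 active = z-score of -3 or lower and OD600 up to 0.18 on both plates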;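 also: plate controls were untreated cells for no effect and reference antibiotic for full effect; stock transfer was 100 nL into about 80 µL; one replicate is shown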
Sa ugtP lethal – growth inhibition of ugtP-null S. aureus, primary screen, RN4220 ugtP deletion, OD600; 0.54% of 330,000 active; growth inhibition, % (test concentration not listed); 16 h; some inactives read as strong as hits;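 active = z-score under -3 and OD600 up to 0.15 on both plates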;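 also: plate controls were untreated wells for no effect and antibiotic for full effect; wells of about 80 µL received 100 nL stock; the first replicate is given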
Autofluor counter – flagged as autofluorescent in microsphere protease counterscreen | compound autofluorescence counterscreen, microsphere flow cytometry; hits give high values | AID 624483 | fluorescence intensity (test concentration not listed) | 3.1% of 360,000 active;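 active = at least 3 SD above the mean of all compounds, about 16000 in these data; inconclusive = too few beads counted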;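 also: 100 nL of 1 mM stock went into each well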
Mtb hypoxia rep growth – further read-out of Mtb hypoxia rep, marked with its call; growth inhibition, %; measured here: M. tuberculosis growth (absorbance);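 0% = vehicle and 100% = reference antibiotic; read after six days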
Numbers without * were called inactive; ? = inconclusive; nt = no result given.

Values in the order – Mtb hypoxia rep	Mtb hypoxia rep growth	PrP UTR inh	BJeLR viability	RN4220 kill	Sa ugtP lethal	Autofluor counter
1: Cc1ccccc1NC(=O)c1cccc2nc3ccccc3nc12
  nt	nt	11	6	-1.4	-5	2882
2: CC(C)(C)c1cc(N2CCOCC2)n2ncc(-c3ccccc3)c2n1
  -3	11	-5	2	-4.3	2	4135
3: COCc1cc(=O)n2[nH]c(C)c(-c3ccccc3)c2n1
  6	1	-15	-19	-0.3	12	3827
4: CCOC(=O)C1CCN(C2=NC(=O)/C(=C/c3ccc(O)cc3)S2)CC1
  10	6	-33	-15	-1.1	18	3674
5: CC(=O)Nc1ccc(S(=O)(=O)NC2CC(=O)N(c3ccc4c(c3)OCCO4)C2)cc1 (centres undefined)
  1	2	-1	6	0.3	3	4922
6: COc1ccc(NC(=O)Nc2cccc3c2OC(CN(C)S(C)(=O)=O)C(C)CN(C(C)CO)C3=O)cc1 (centres undefined)
  4	1	nt	nt	3.9	5	nt
7: CN(C(=O)c1ccc(NC(=O)Cc2cccc(NC(=O)C3CCN(C(=O)C4CC4)CC3)c2)cc1)C1CC1
  -6	1	30	nt	3.4	3	4009
8: C/C(=N\Nc1cccc2cccnc12)c1ccccn1
  nt	nt	-63	11	nt	nt	3352
9: O=C(O)CCNS(=O)(=O)c1cccc2nsnc12
  8	7	-20	nt	1.8	-3	3618
10: CC(C)OC(=O)c1ccc(COC(=O)CNC(=O)c2ccco2)cc1
  9	2	-20	-2	-0.2	-2	3645
11: O=C(O)C(c1ccccc1)C(O)C1CCCC1 (centres undefined)
  4	0	-30	nt	1.0	2	4188
12: COc1ccc(NC(=O)CN(C)C(=O)Cn2c(=O)oc3ccccc32)cc1
  -5	-5	-21	5	4.9	10	nt
13: O=C(Nc1ccc(Br)cc1F)C1CCCO1 (centres undefined)
  6	0	-18	1	10	2	4269
14: COc1ccc(C(=O)NC(NC(=S)Nc2ccc(S(N)(=O)=O)cc2)C(Cl)(Cl)Cl)cc1 (centres undefined)
  7	9	-7	-6	-0.7	-1	3358
15: CCC(C)c1ccccc1NC(=O)COC(=O)c1ccc(C)c(NC(=O)c2ccco2)c1 (centres undefined)
  1	8	-19	5	9.0	-9	21016*
16: Cc1ccc(S(=O)(=O)N2[C@@H](c3ccc(Br)cc3)C(C(=O)O)=CC[C@H]2c2cccs2)cc1
  1	1	1	nt	28	8	3068
17: COc1cccc(C2CC(c3ccc(Cl)cc3)n3nc(N)nc3N2)c1 (centres undefined)
  nt	nt	-11	-9	0.8	3	4524
18: CCc1nnc(NC(=O)CSc2nnc(CSc3nc(C)cc(C)n3)n2C)s1
  14	11	-10	-5	5.5	0	9630
19: CCOC(=O)C1=c2c(=Cc3ccncc3)c(N)c(C(=O)OC)n2C(=O)C(c2ccncc2)S1 (centres undefined)
  10	4	nt	nt	-7.8	3	nt
20: O=C(COC(=O)COc1ccccc1)Nc1ccc(Br)cc1F
  7	4	-19	nt	2.2	2	2834
21: COc1ccc([N+](=O)[O-])cc1N(CC(O)CN(C)C)S(=O)(=O)c1ccc(C)cc1 (centres undefined)
  5	15	-21	1	3.4	11	4287
22: O=C(CSc1nccc(=O)[nH]1)c1ccccc1Br
  -2	1	-29	4	2.5	-2	16683*
23: CC1(C)CC(=O)C(C(N)=NC(=O)c2ccc([N+](=O)[O-])cc2)=C(O)C1
  2	2	-16	10	-0.5	1	4230
24: CCC1(CCO)C(=O)NC(=S)NC1=O
  17	3	-34	nt	-0.8	3	3013
25: CCc1nnc(NC(=O)CSc2nccn2-c2cccc(C)c2C)s1
  1	11	-25	8	-15	-3	4507
26: COc1cccc(OC)c1NC(=O)NC(=O)c1c(OC)c(Br)cc([N+](=O)[O-])c1OC
  -1	9	-21	-8	1.2	2	4246
27: CC(C)CN1C(=O)C(=O)N(CC(=O)Nc2cc(Cl)ccc2Oc2ccccc2)C1=O
  9	1	-15	-20	1.8	2	4558
28: O=C(Nc1ccccc1N1CCOCC1)c1csc2c1CCCC2
  11	5	-9	2	19	1	3757
29: COc1ccc(-c2noc(CNS(=O)(=O)c3ccc(NC(C)=O)cc3)n2)cc1
  4	-5	5	-11	-1.0	-3	4516
30: O=C(Nc1ccc(F)cc1)c1cc2ccccc2o1
  7	0	-87	-4	5.5	-2	3847
31: COc1ccc2oc(C(=O)Nc3ccccc3N3CCOCC3)c(C)c2c1
  10	-5	-17	-9	1.4	-5	4274
32: c1cc2c(cnc3cscc32)s1
  3	7	-5	3	4.3	4	2465
33: CCN(CC(=O)NCc1ccc(Cl)cc1)C(=O)Cc1ccc(OC)cc1
  7	1	-23	-1	1.8	-1	3798
34: O=C(OCCCCOC(=O)c1ccccc1)c1ccccc1
  -5	-10	-16	-1	5.1	3	4761
35: Cn1nccc1C(=O)N1CCOCC1
  5	1	5	-8	3.2	9	5594
36: O=C(CSc1n[nH]c(-c2cccnc2)n1)Nc1ccc(Cl)cc1
  0	8	-14	7	-0.9	-1	3468
37: CCNc1nc(NC(C)(C)C)nc(Oc2ccc(=O)n(-c3ccccc3)n2)n1
  2	0	-11	-23	0.9	-2	3836
38: O=C1CCCN1CC(=O)N1CCCC(N2CCN(c3cccc(Cl)c3)CC2)C1 (centres undefined)
  1	-6	-20	-4	-0.3	6	nt
39: CC(C(=O)NCc1cccs1)N1C(=O)c2ccccc2C1=O (centres undefined)
  3	10	-20	3	1.2	3	2906
40: Cc1ccc(NC(=O)OC(C)CNC(=O)Oc2cccc(C)c2)cc1 (centres undefined)
  -1	3	-32	8	4.2	4	3342
41: CCN(CC)CC#CCC1(O)c2ccccc2-c2ccccc21
  -6	-5	-8	-1	-3.6	-4	8213
42: Clc1ccc(-c2c[nH]c3ccccc23)nn1
  4	-1	-17	6	-1.6	-12	3613
43: Cc1ccc(-n2nc(C)c3c2NC(=O)CSC3c2ccc3c(c2)OCO3)cc1 (centres undefined)
  nt	nt	7	1	-2.3	5	4830
44: COC(=O)/C(=C(/F)Sc1cc(C)c(O)c(C)c1)C(F)(F)F
  7	3	-17	-2	1.0	-7	22354*
45: CCOc1ccccc1CNC(=O)CCC(=O)N1Cc2ccccc2Oc2ncccc21
  1	-8	-2	-6	-2.5	3	4286
46: Cc1ccc(S(=O)(=O)NCCC(=O)N2CCN(Cc3ccccc3)CC2)cc1
  -3	-2	2	3	3.1	4	9064
47: CC1(C(=O)NNC(=O)c2cccc([N+](=O)[O-])c2)CC1(Br)Br (centres undefined)
  -4	15	8	0	0.5	3	5374
48: CC(=O)Nc1cccc2c1C(=O)N(c1ccc(C)cc1)C2=O
  -5	4	-7	-2	4.1	-2	6793
49: Cc1cc(OCC(=O)NC2CCN(C)CC2)ccc1[N+](=O)[O-]
  14	2	-23	-2	9.8	4	4394
50: O=C(C1CCCN1S(=O)(=O)c1cccc2cccnc12)N1CCN(c2ccccc2)CC1 (centres undefined)
  nt	nt	-16	-2	-0.2	3	4151

The results go on.
Values in the order – Mtb hypoxia rep	Mtb hypoxia rep growth	PrP UTR inh	BJeLR viability	RN4220 kill	Sa ugtP lethal	Autofluor counter
51: COc1ccc(-c2nc3nc(C)c(Cc4ccccc4)c(=O)n3[nH]2)cc1
  -6	5	6	3	0.2	1	22311*
52: Cc1cccc(NCc2ccccc2)c1
  4	6	1	2	5.5	7	4600
53: C=C(C)C(=O)N1CCN(C(=O)C(=C)C)c2ccccc21
  10	12	-1	nt	0.0	-1	3756
54: COc1ccccc1N1CCN(/N=C/c2ccc(O)cc2O)CC1
  nt	nt	-53	-9	nt	nt	4736
55: O=C1C(Cc2ccc(O)cc2)NC(=S)N1c1ccccc1 (centres undefined)
  -3	8	-8	4	1.6	0	23822*
56: COc1ccc(CC(=O)N2CCCC(C)C2)cc1 (centres undefined)
  3	5	0	-1	1.7	0	4158
57: O=C(Nc1cccc(C(F)(F)F)c1)c1cccn(Cc2ccc3c(c2)OC(F)(F)O3)c1=O
  4	3	-20	3	-12	-11	20449*
58: Cc1ccc(CCNC(=O)c2sc3nc4n(c(=O)c3c2C)CCC4)cc1
  4	9	-8	9	-0.3	9	5596
59: Cc1ccc(C)n1-c1ccc(C(=O)/C=C/N(C)C)cc1
  3	2	-23	0	13	25	3511
60: O=C(CSc1ccc(Cl)cc1)N1CCN(c2ccc(Cl)cc2[N+](=O)[O-])CC1
  5	3	-17	2	8.8	-10	9471

Part of the list above in order of formula weight, high to low:
Values in the order – Mtb hypoxia rep	Mtb hypoxia rep growth	PrP UTR inh	BJeLR viability	RN4220 kill	Sa ugtP lethal	Autofluor counter
55: O=C1C(Cc2ccc(O)cc2)NC(=S)N1c1ccccc1 (centres undefined)
  -3	8	-8	4	1.6	0	23822*
59: Cc1ccc(C)n1-c1ccc(C(=O)/C=C/N(C)C)cc1
  3	2	-23	0	13	25	3511
56: COc1ccc(CC(=O)N2CCCC(C)C2)cc1 (centres undefined)
  3	5	0	-1	1.7	0	4158
52: Cc1cccc(NCc2ccccc2)c1
  4	6	1	2	5.5	7	4600

Later entries.
Values in the order – Mtb hypoxia rep	Mtb hypoxia rep growth	PrP UTR inh	BJeLR viability	RN4220 kill	Sa ugtP lethal	Autofluor counter
61: O=C(c1cnc(N2CCN(c3ncccn3)CC2)c2ccccc12)N1CCN(c2ncccn2)CC1
  nt	nt	-5	-7	4.4	-2	2833
62: CN(C)c1nc(OCCNC(=O)COc2ccccc2Cl)nc(N(C)C)n1
  10	-8	-15	-2	4.0	9	3381
63: O=C(CSc1nnc(CNC(=O)c2ccco2)o1)Nc1ccccc1F
  2	1	-15	-2	-0.3	-1	4806
64: COc1cccc(-c2cc3nc(-c4ccccc4)cc(N4CCCC(O)C4)n3n2)c1 (centres undefined)
  13	2	-21	1	-11	-23	2719
65: Cc1ccc2[nH]cc(CCNC(=O)c3ccc([N+](=O)[O-])cc3)c2c1
  -5	6	-24	-6	-2.1	4	2424
66: CC(C)CN(C(=O)CCC1CCCCC1)c1c(N)n(CC(C)C)c(=O)[nH]c1=O
  3	5	-13	nt	2.0	9	?
67: CC(=O)Nc1ccc2nc(-c3cccs3)[nH]c2c1
  5	10	-40	5	-9.8	-6	2526
68: CCN(CC)C(=O)c1ccc(COc2ccccc2Cl)o1
  11	-7	-24	6	4.7	6	2922
69: Cc1ccc(OCC(=O)Nc2ccc(NC(=O)c3ccccc3)c(C)c2)cc1
  5	12	-7	nt	2.5	2	5327
70: CCOc1ccc(NS(=O)(=O)c2cc(OC)ccc2OC)cc1
  13	1	-23	7	2.5	13	6674
71: CC(C)C(OC(=O)c1cc2occc2n1C)C(=O)NCc1ccc2c(c1)OCO2 (centres undefined)
  15	4	-16	-3	2.4	14	9167
72: CCC(=O)NCCc1nc2cc(NC(=O)c3ccc(F)cc3)ccc2n1C
  14	-2	-28	-2	-0.3	4	3607
73: CCOc1cc(/C=C2\C(=O)N(c3nc(-c4ccc(Br)cc4)cs3)N=C2c2ccccc2)ccc1O
  4	22	-32	16	1.1	4	?
74: O=C(/C=C/c1ccc(S(=O)(=O)N2CCOCC2)cc1)NCc1ccccc1Cl
  7	2	-5	0	-0.4	-1	2621
